DUX4 inh – blocks DUX4-driven transcriptional activation. 37,000 compounds, 0.8% hits. 293T-iDUX4 ZSCAN4-Gaussia luciferase reporter, 24 h; stronger effect = lower value. activity change, negative = inhibition, % (no concentration beside the values);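 active means -10% or lower and over 25 points stronger than a control reporter; inconclusive means -10% or lower with a smaller gap; inactive means above -10%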;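 further: 0% = median of neutral control wells and -100% = median of positive control wells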
DUX4 inh difference – second read-out of DUX4 inh, no call of its own (marks repeat the call); Gaussia minus Italica difference, %; measured here: selective DUX4 reporter inhibition;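 worked out from the two reporters; negative = selective loss of the DUX4 reporter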
DUX4 inh control – second read-out of DUX4 inh, no call of its own (marks repeat the call); activity change, negative = inhibition, %; measured here: Italica tet-on control reporter;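 0 = neutral control and -100 = positive control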
* marks the source's active call; other numbers are inactive results; ? = inconclusive; · = no result given. Not all compounds are listed; count on the stated rates, not on these rows.

SMILES | DUX4 inh | DUX4 inh difference | DUX4 inh control
C[C@H]1CN([C@@H](C)CO)C(=O)c2cccc(NC(=O)Nc3ccc(C(F)(F)F)cc3)c2O[C@@H]1CN(C)Cc1ccc2c(c1)OCO2 | -2.8 | -0.5 | -2.3
CCCNC(=O)[C@H]1[C@H](CO)[C@H]2Cn3c(ccc(/C=C/c4ccccc4)c3=O)[C@@H]1N2C(=O)c1cccnc1 | 2.4 | 3.3 | -0.9
CCCC#Cc1cnc2c(c1)C(=O)N([C@H](C)CO)C[C@H](C)[C@@H](CN(C)Cc1ccc3c(c1)OCO3)O2 | -3.6 | -1.7 | -1.9
C[C@@H]1CN([C@@H](C)CO)C(=O)CCCn2cc(nn2)CO[C@@H]1CN(C)S(=O)(=O)c1cccc(F)c1 | -4.4 | -1.0 | -3.4
N#C[C@@H]1[C@H](c2ccccc2)[C@@H](CO)N1C(=O)c1cc(Cl)cc(Cl)c1 | 0.3 | -1.9 | 2.2
O=C(C[C@H]1C[C@@H]2c3cc(NC(=O)c4ccc5c(c4)OCO5)ccc3O[C@@H]2[C@@H](CO)O1)NCC1CC1 | -1.6 | 4.2 | -5.9
O=C(N[C@H]1CC[C@H](CCn2cc(-c3ccccn3)nn2)O[C@H]1CO)c1ccncc1 | 4.2 | -0.7 | 4.9
Cc1cccc(S(=O)(=O)N2C[C@@H](O)COC[C@H]3O[C@H](CC(=O)Nc4ccccc4)CC[C@@H]32)c1 | 5.2 | 9.4 | -4.2
CS(=O)(=O)Nc1ccc2c(c1)[C@@H]1C[C@H](CC(=O)NC3CCCC3)O[C@H](CO)[C@@H]1O2 | 0.8 | -0.7 | 1.5
C/C=C/c1ccc2c(c1)O[C@H](CN(C)Cc1ccccc1F)[C@H](C)CN([C@H](C)CO)S2(=O)=O | 0.1 | -3.7 | 3.9
COC(=O)C[C@H]1CC[C@H]2[C@H](COc3ccc(NC(=O)c4ccc(C(F)(F)F)cc4)cc3C(=O)N2C)O1 | 2.5 | 4.3 | -1.7
Cc1ccc(CN2CC(=O)N3[C@H](CO)[C@@H](c4ccc(-c5ccccc5F)cc4)[C@H]3C2)cc1 | 9.7 | -4.6 | 14.3
O=S(=O)(c1ccccc1F)N1CC[C@@H]2[C@@H](CO)Nc3ccc(-c4ccccc4F)cc3[C@@H]21 | -5.0 | 3.5 | -8.5
COc1ccc(NC(=O)N(C)C[C@@H]2Oc3ncc(-c4cccnc4)cc3C(=O)N([C@H](C)CO)C[C@@H]2C)cc1 | -2.2 | -1.4 | -0.7
CC=Cc1ccc2n(c1=O)C[C@H]1[C@H](CO)[C@@H](C(=O)N3CCN(C)CC3)N(Cc3ccccc3OC)[C@@H]21 (mixture of isomers) | -1.4 | 1.2 | -2.5
CN(C[C@H]1[C@@H](c2ccccc2)[C@@H](CO)N1C(=O)C1CC1)C(=O)c1ccccn1 | 0.8 | 0.4 | 0.3
O=C(Nc1ccc(F)cc1)N1C[C@H]2[C@@H](c3ccccc31)[C@@H](CO)N2C(=O)c1ccccc1 | -1.7 | -1.1 | -0.6
CCCNC(=O)N1CC[C@@H]2[C@@H](CO)N(C)c3ccc(-c4cccc(OC)c4)cc3[C@@H]21 | 9.1 | 9.5 | -0.4
CCN1[C@@H]2c3ccc(/C=C/c4ccccc4)c(=O)n3C[C@H]1[C@H](CO)[C@H]2C(=O)N1CCOCC1 | -3.6 | -3.2 | -0.4
COc1ccc2c3c([nH]c2c1)[C@@H](CO)N(Cc1ccc(Cl)cc1)CC31CN(Cc2nccs2)C1 | ? | · | ·
O=C(c1ccc(F)cc1)N1CCCCN2[C@H](CO)[C@@H](c3ccc(-c4ccccc4)cc3)[C@@H]2C1 | ? | · | ·
COc1ccc2c3c(n(C)c2c1)[C@@H](CO)N(C(C)=O)CC31CN(C(=O)Nc2ccc(F)cc2)C1 | 4.0 | 2.2 | 1.8
C[C@@H]1CCCCO[C@@H](CN(C)C(=O)Cc2ccccc2)[C@H](C)CN([C@@H](C)CO)C(=O)c2cc(NS(C)(=O)=O)ccc2O1 | -0.3 | 1.8 | -2.1
COc1ccc(C#Cc2ccc([C@@H]3[C@H](CO)N4C(=O)CN(C(=O)NC(C)C)C[C@@H]34)cc2)cc1 | -1.2 | -4.4 | 3.2
O=C(NC[C@H]1[C@@H](c2ccccc2)[C@H](CO)N1C(=O)C1CCC1)NC1CCCC1 | -0.8 | -3.7 | 2.9
CO[C@H]1CN(C)C(=O)c2cc(NS(=O)(=O)c3cn(C)cn3)ccc2OC[C@H](C)NC[C@H]1C | 3.5 | -1.1 | 4.6
CO[C@@H]1CC[C@@H]2CCN(C)C(=O)C[C@@H](c3ccccc3)CN(C)C(=O)c3cc(C#N)ccc3OC[C@H]1O2 | -6.9 | -4.3 | -2.6
COCC(=O)N1C[C@H](C)[C@H](OC)CN(C)C(=O)c2cc(NC(=O)Nc3ccccc3)ccc2OC[C@H]1C | 0.6 | -0.8 | 1.4
O=C(C[C@H]1CC[C@@H]2[C@H](COC[C@H](O)CN2Cc2cc(F)ccc2F)O1)N[C@@H]1CCN(Cc2ccccc2)C1 | ? | · | ·
OC[C@@H]1[C@@H](c2ccccc2)C2(CN(Cc3cccc(F)c3)C2)N1CC1CCCC1 | ? | · | ·
CCNC(=O)C[C@@H]1CC[C@H]2[C@@H](COC[C@@H](O)CN2C(=O)Nc2cccc(OC)c2)O1 | 5.0 | 0.0 | 5.0
O=C(c1ccccc1F)N1CC(=O)N2[C@H](C1)[C@@H](c1ccc(-c3cccnc3)cc1)[C@@H]2CO | 14.1 | 11.0 | 3.1
O=C(c1cccnc1)N1CC[C@@H]2[C@H]1c1cc(C#Cc3cccnc3)ccc1N[C@@H]2CO | -18.4* | -25.2* | 6.7*
O=C([C@@H]1[C@@H](CO)[C@@H]2Cn3c(cccc3=O)[C@@H]2N1CCC(F)(F)F)N1CCCCC1 | 2.4 | 2.7 | -0.4
CO[C@@H]1CC[C@H]2CCOc3ccc(C#N)cc3C(=O)N(C)C[C@@H](C)C(=O)N(C)C[C@@H]1O2 | 1.2 | 1.0 | 0.2
C[C@H](NC(=O)C[C@@H]1C=C[C@H](NS(=O)(=O)c2cccc(F)c2)[C@@H](CO)O1)c1ccccc1 | -0.7 | -3.7 | 3.0
C[C@H]1CN([C@@H](C)CO)C(=O)Cc2cc(NC(=O)Cc3cn(C)c4ccccc34)ccc2O[C@H]1CN(C)S(=O)(=O)c1cccs1 | -2.3 | -2.3 | 0.1
CN1C(=O)c2cc(NC(=O)Nc3cccc(C#N)c3)ccc2OC[C@H]2O[C@@H](CC(=O)Nc3ccc4c(c3)CCC4)CC[C@@H]21 | 0.1 | 1.0 | -1.0
CN1CCN(C(=O)C[C@H]2CC[C@H]3[C@@H](COC[C@H](O)CN3Cc3ccc(Oc4ccccc4)cc3)O2)CC1 | ? | · | ·
CCC(=O)N1Cc2cc(C(=O)NCc3cccc(F)c3)nc(-c3cccc(C4=CCCC4)c3)c2[C@H]1CCO | 0.0 | 2.0 | -2.0
COc1ccc(-c2ccc3c(c2)[C@H]2[C@H](CCN2S(=O)(=O)c2ccccc2F)[C@H](CO)N3)cc1 | -6.3 | 15.6 | -22.0
CN(C)C(=O)c1cccc(-c2ccc3c(c2)[C@@H]2[C@@H](CCN2C(=O)c2ccncc2)[C@H](CO)N3C)c1 | 9.4 | 2.6 | 6.8
CO[C@@H](CN(C)C(=O)c1cnccn1)[C@@H](C)CN([C@@H](C)CO)S(=O)(=O)c1ccc(Cl)cc1 | 1.2 | 0.7 | 0.5
COc1ccc(CN(C)C[C@@H]2OCc3cn(nn3)CCCC(=O)N([C@@H](C)CO)C[C@@H]2C)cc1 | -3.2 | -1.0 | -2.3
O=C1N[C@H](c2ccccc2)COCc2cn(nn2)CC[C@H]1Cc1ccc(Cl)cc1 | -1.9 | -0.3 | -1.7
CCC(=O)N1CC2(C1)CN(Cc1ccc(OC)cc1)[C@H](CO)c1[nH]c3cc(OC)ccc3c12 | 2.0 | -3.6 | 5.6
CC(C)NC(=O)N1C[C@@H]2[C@H](c3ccccc31)[C@H](CO)N2C(=O)NC(C)C | 2.5 | 0.1 | 2.4
O=C(c1ccccn1)N1CC[C@@H]2[C@H]1c1cc(C#Cc3ccccc3)ccc1N[C@@H]2CO | 13.5 | -15.6 | 29.1

Quoted from the entries so far (ten entries):
SMILES | DUX4 inh | DUX4 inh difference | DUX4 inh control
C[C@H]1CN([C@@H](C)CO)C(=O)Cc2cc(NC(=O)Cc3cn(C)c4ccccc34)ccc2O[C@H]1CN(C)S(=O)(=O)c1cccs1 | -2.3 | -2.3 | 0.1
CN1C(=O)c2cc(NC(=O)Nc3cccc(C#N)c3)ccc2OC[C@H]2O[C@@H](CC(=O)Nc3ccc4c(c3)CCC4)CC[C@@H]21 | 0.1 | 1.0 | -1.0
CN1CCN(C(=O)C[C@H]2CC[C@H]3[C@@H](COC[C@H](O)CN3Cc3ccc(Oc4ccccc4)cc3)O2)CC1 | ? | · | ·
CCC(=O)N1Cc2cc(C(=O)NCc3cccc(F)c3)nc(-c3cccc(C4=CCCC4)c3)c2[C@H]1CCO | 0.0 | 2.0 | -2.0
COc1ccc(-c2ccc3c(c2)[C@H]2[C@H](CCN2S(=O)(=O)c2ccccc2F)[C@H](CO)N3)cc1 | -6.3 | 15.6 | -22.0
CN(C)C(=O)c1cccc(-c2ccc3c(c2)[C@@H]2[C@@H](CCN2C(=O)c2ccncc2)[C@H](CO)N3C)c1 | 9.4 | 2.6 | 6.8
CO[C@@H](CN(C)C(=O)c1cnccn1)[C@@H](C)CN([C@@H](C)CO)S(=O)(=O)c1ccc(Cl)cc1 | 1.2 | 0.7 | 0.5
COc1ccc(CN(C)C[C@@H]2OCc3cn(nn3)CCCC(=O)N([C@@H](C)CO)C[C@@H]2C)cc1 | -3.2 | -1.0 | -2.3
O=C1N[C@H](c2ccccc2)COCc2cn(nn2)CC[C@H]1Cc1ccc(Cl)cc1 | -1.9 | -0.3 | -1.7
CCC(=O)N1CC2(C1)CN(Cc1ccc(OC)cc1)[C@H](CO)c1[nH]c3cc(OC)ccc3c12 | 2.0 | -3.6 | 5.6

The list goes on.
SMILES | DUX4 inh | DUX4 inh difference | DUX4 inh control
O=C(Nc1ccccc1)N1C[C@@H]2[C@H](c3ccccc31)[C@@H](CO)N2C(=O)Cc1ccccn1 | -0.5 | 0.0 | -0.4
CCNC(=O)C[C@@H]1CC[C@H]2[C@@H](COC[C@H](O)CN2C(=O)Nc2ccc(C(F)(F)F)cc2)O1 | 6.2 | 4.0 | 2.2
CN1C(=O)c2cc(NC(=O)c3ccno3)ccc2OC[C@H]2O[C@@H](CC(=O)NCC3CC3)CC[C@@H]21 | -3.4 | -3.2 | -0.2
CCC(=O)N1C[C@H]2[C@@H](c3ccccc31)[C@H](CO)N2C(=O)Nc1ccccc1F | -3.7 | -1.4 | -2.3
O=C(c1ccccc1)N1C[C@H]2[C@@H](c3ccccc31)[C@@H](CO)N2C(=O)CN1CCOCC1 | -0.4 | 2.2 | -2.6
O=C(C[C@@H]1CC[C@H]2[C@@H](COC[C@H](O)CN2Cc2nccs2)O1)N1CCC(Cc2ccccc2)CC1 | ? | · | ·
COc1ccccc1S(=O)(=O)N(C)C[C@@H]1OCc2cnnn2CCCC(=O)N([C@@H](C)CO)C[C@@H]1C | 2.1 | 3.3 | -1.2
Cc1cc(C(=O)Nc2cccc3c2O[C@@H](CN(C)C)[C@H](C)CN([C@@H](C)CO)C3=O)n(C)n1 | -0.3 | 2.2 | -2.5
COc1ccccc1CNC(=O)C[C@H]1C=C[C@@H](NC(=O)CC2CC2)[C@H](CO)O1 | -1.4 | -3.1 | 1.7
O=C(C[C@H]1CC[C@H]2[C@@H](COC[C@H](O)CN2C(=O)c2ccccc2F)O1)NCc1ccc(Cl)cc1 | 9.5 | 9.3 | 0.2
CN(C)C(=O)c1ccc(-c2ccc([C@@H]3[C@H]4CN(C(=O)C5CC5)CC(=O)N4[C@H]3CO)cc2)cc1 | 1.0 | -4.0 | 5.0
C[C@H](NC(=O)C[C@H]1CC[C@H]2[C@@H](COC[C@H](O)CN2Cc2ccc(C(F)(F)F)cc2)O1)c1ccccc1 | ? | · | ·
O=C(O)C[C@H]1CC[C@H]2[C@@H](COC[C@@H](O)CN2S(=O)(=O)c2ccc(F)cc2)O1 | 8.2 | 2.5 | 5.7
O=C(C[C@@H]1C[C@@H]2c3cc(NC(=O)Nc4ccccc4F)ccc3O[C@@H]2[C@H](CO)O1)NCc1ccc2c(c1)OCO2 | 5.5 | 2.1 | 3.5
O=C(C[C@H]1C[C@@H]2c3cc(NC(=O)Nc4ccccc4F)ccc3O[C@@H]2[C@H](CO)O1)NCCc1ccccc1 | 0.0 | -10.1 | 10.1
CNC(=O)C[C@@H]1CC[C@H]2[C@H](COc3ccc(NC(=O)NC4CCCC4)cc3C(=O)N2C)O1 | 1.0 | 2.5 | -1.5
N#Cc1cccc(-c2ccc(C3[C@@H]4CNC[C@H]3N4)cc2)c1 (stereo partly drawn) | 18.2 | 14.5 | 3.7
O=C(C[C@@H]1CC[C@H]2[C@@H](COC[C@@H](O)CN2C(=O)Nc2cccc(F)c2)O1)NCCCN1CCOCC1 | 9.8 | 4.2 | 5.6
O=C(NCc1ccccc1)[C@H]1[C@H](CO)[C@H]2Cn3c(cccc3=O)[C@@H]1N2CC1CCCC1 | -4.6 | 2.1 | -6.7
O=C(N[C@H]1CC[C@@H](CC(=O)N2CCc3ccccc3C2)O[C@H]1CO)C1CCOCC1 | 5.7 | 3.2 | 2.6
CN(C)CCCNC(=O)C[C@@H]1CC[C@@H]2[C@H](COc3ccc(NC(=O)c4cccc(F)c4)cc3C(=O)N2C)O1 | 5.0 | 0.7 | 4.3
C[C@@H]1CN([C@@H](C)CO)S(=O)(=O)c2ccc(-c3ccncc3)cc2O[C@H]1CN(C)C(=O)c1ccc2c(c1)OCO2 | 0.8 | 0.3 | 0.5
CO[C@H]1CN(C)C(=O)c2ccc(NC(=O)Nc3ccc(C(F)(F)F)cc3)cc2OC[C@H](C)NC[C@H]1C | ? | · | ·

High-throughput results (PubChem)
